Source: PubChem (Fisher Drug Discovery Resource Center)
NPYLR7 agonist: activates Aedes aegypti NPYLR7 receptor; HEK293T NPYLR7/Galpha15, GCaMP6s calcium fluorescence; activation, % at 10 µM; 270,000 tested, 0.15% active; AID 1259423; in the data active = activation above about 40%;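 note: 0% = vehicle and 100% = reference agonist at the receptor; some compounds past the cut are filed as inactive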
NPYLR7 agonist max-min: also measured in NPYLR7 agonist; calls as there; activation, %; measured here: Max-Min RFU normalised activation; some inactives read as strong as hits;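 span of the calcium signal over five minutes; 0% = vehicle and 100% = native peptide agonist; compound fluorescence can raise it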
Numbers without * were called inactive; & = joins results of further samples. A portion of the library; count on the stated rates, not on these rows.

Fields – NPYLR7 agonist	NPYLR7 agonist max-min
- C(=C\c1nccc2[nH]nc(-c3ccccc3)c12)/c1ccccc1
→ 4	3
- N#CCC(=O)Nc1nccs1
→ -5	-5
- CCOCCCN(CC(=O)N(CCc1ccccc1)Cc1ccc(C)o1)C(=O)c1ccco1
→ 8	13
- Cc1nccn1CCCC(=O)N1CCc2c(nc(-c3cccnc3)[nH]c2=O)C1
→ 7	2
- O=C(NCc1cccs1)c1cccnc1N1CCN(C(=O)COCc2ccccc2)CC1
→ -5	-9
- CCC(C)NC(=O)CN1CCN(CN2CCSC(C)C2=O)CC1 (stereo not drawn)
→ -1	-5
- COc1cc2nc(C=Cc3ccc4c(c3)OCO4)sc2cc1SC
→ 28	24
- CN1CCN2CCN(C(=O)c3ncoc3C3CC3)CC2C1=O (stereo not drawn)
→ 9	5
- Cc1sc(-n2cccc2)c(C(=O)N2CCn3c(C(N)=O)cnc3C2)c1C
→ 4	3
- CC(C)CCNC(=O)c1cc(-c2ccccc2)nn1-c1ccc(F)cc1
→ -7	3
- Cc1nc(/C=C/C(=O)Nc2ccc(CN3CCSCC3)cc2C)cs1
→ 3	3
- CCN(CC)C(=O)Oc1ccc2c(ccn2Cc2cccc(F)c2)c1NC(=O)C(F)(F)C(F)F
→ -2	-14
- CC(=O)O[C@@H](C)C(=O)N1CCN(c2nccc(-c3ccc(C(C)(C)C)cc3)n2)CC1
→ 4	16
- Cc1ccc(C(=O)NNC(=O)c2ccc(=O)n(Cc3ccccc3)c2)cc1C
→ -9	-17
- Cc1ccc(-n2ncc(C(=O)N3CCN(CCO)CC3)c2N)cc1C
→ 27	25
- Cc1ccc(N(CCN2C(=O)c3ccccc3C2=O)C(=O)c2ccc(Cl)cc2Cl)c(C)c1
→ -12	-12
- O=C(O)c1cc(Cl)ccc1Oc1ccc(F)cc1
→ -1	-2
- COc1ccccc1C(O)c1ncc(-c2ccc(Cl)cc2)[nH]1 (stereo not drawn)
→ 4	3
- CN(C)c1ccc(-c2cnn3c(NCc4cccc(Cl)c4)ccnc23)cc1
→ -4	-7
- Cc1cccc(C)c1Nc1c(-c2ccccn2)nc2cccc(C)n12
→ -4	1
- COCCCNC(=O)c1c(N)n(-c2ccc(Cl)c(Cl)c2)c2nc3ccccc3nc12
→ -2	-5
- C=CCn1cc(CNC2CC(=O)N(Cc3cccc4ccccc34)C2)c(C)n1 (stereo not drawn)
→ -6	-12
- COc1ncccc1CNc1nc(C(F)(F)F)ccc1C#N
→ 4	0
- CC(=O)c1cc(-c2cccc3cccnc23)ccc1O
→ 6	5
- COC(=O)c1c(NC(=O)CN(C)CC(=O)Nc2cccc(F)c2)sc2c1CCCC2
→ -1	22
- CCc1ccc(N2CCN(C(=O)c3cc4cc(Br)ccc4oc3=O)CC2)cc1
→ -2	-6
- Cc1ccc(CCC2NC(=O)C(C#N)C(=S)N2c2ccccc2)o1 (stereo not drawn)
→ 1	27
- O=C(CN1Cc2ccc(Nc3cccc(F)c3)nc2C1=O)NCCN1CCOCC1
→ 5	0
- O=C(c1ccccc1-n1cncn1)N1CCC2(CCOCC2)CC1
→ 4	0
- CC(C)Oc1cccc(F)c1-c1ccc(CN2CCCC2)cn1
→ -3	-3
- CC1(C(=O)NS(=O)(=O)Cc2ccccc2C(F)(F)F)CCN1C(=O)c1cccc(F)c1 (stereo not drawn)
→ -2	-2
- O=C(CCCSc1ccc(NC(=O)c2ccco2)nn1)Nc1ccccn1
→ -5	-5
- COC(=O)c1ccc(CN2CCC(n3nccc3NC(=O)Cc3ccccc3)CC2)cc1
→ 1	-2
- CCCCCCC(=O)Nc1c(-c2cccc(OC)c2)nc2ccccn12
→ -11	-8
- COc1cc(C(c2c(C)[nH][nH]c2=O)c2c(C)[nH][nH]c2=O)cc(OC)c1OC
→ 2	-1
- COc1cccc(Cc2nsc(N(CCc3ccccc3)Cc3ccccc3)n2)c1
→ 29	35
- CCn1cc(C(=O)NS(=O)(=O)c2ncccc2C(=O)N(C)C)c2ccccc21
→ -4	-4
- O=C(C1CCOCC1)N1CCCC(O)(C(F)(F)F)C1 (stereo not drawn)
→ 3	1
- CN(CC(=O)Nc1ccc(N2CCOCC2)cc1)C(=O)c1ccc2c(c1)NC(=O)CCS2
→ 5	2
- Cc1ccccc1COC1CCCN(C(=O)C2CCCC2)C1 (stereo not drawn)
→ -9	-1
- CCCC(NC(=O)c1ccc(C)nc1)c1ccccc1 (stereo not drawn)
→ 0	-1
- CCCc1nc(SCC(=O)N2CCN(S(=O)(=O)c3ccc(C(C)=O)cc3)CC2)n[nH]1
→ 22	24
- CCCOc1ncccc1CNC(=O)CN1Cc2ccccc2C1
→ -2	-2
- CC(=O)N1Cc2ccccc2CC1C(=O)Nc1ccccc1OC(F)F (stereo not drawn)
→ -5	-5
- O=CNc1cc(-c2ccsc2)cn2c(-c3ccccc3)cnc12
→ -5	-11
- CN(C)c1ccc(CC(=O)N2CCc3c(cnn3-c3ccccn3)C2)cc1
→ 0	36
- COc1cc(C(=O)NCCc2csc3nc(-c4ccc(Cl)cc4)nn23)cc(OC)c1OC
→ 2	-1
- O=C1CN2Cc3c(ccc(Cl)c3Cl)N=C2N1
→ -2&-3	-7&-10
- CC(C)N1CCN(C(=O)c2cn(-c3ccc(-c4nc(C(C)(C)C)no4)cn3)cn2)CC1
→ -11	-13
- O=c1oc2ccccc2n1CCN1CC[C@@H](c2ccc(F)cc2)[C@H](O)C1
→ 8	5

(continued)
Fields – NPYLR7 agonist	NPYLR7 agonist max-min
- CCN(C)S(=O)(=O)Nc1cc(Cl)c(OC)c(Cl)c1
→ 1	2
- c1ccc(Nc2nccc3[nH]c(-c4ccco4)nc23)cc1
→ -2	-8
- COc1cc(C)c(-c2nc3ccccc3c(=O)n2C2CCCCC2)cc1C
→ 5	1
- Cc1ccc(C(=O)N2CCCC2C(=O)NCc2ccco2)c(C)c1 (stereo not drawn)
→ 0	-1
- O=C(NC1CC1)C1CNCCN1C(=O)C1=Cc2ccccc2OC=C1 (stereo not drawn)
→ 6	3
- O=c1cc(CNc2nccc(CCC(F)(F)F)n2)nc[nH]1
→ 4	2
- Cc1cccc(-n2cc(CNCC3CCCO3)c(-c3cccc(F)c3)n2)c1 (stereo not drawn)
→ -1	-6
- C=c1onc(-c2ccccc2)c1=c1[nH]/c(=C\c2ccc(OC)cc2OC)c(=O)o1
→ -1	-7
- Cc1cc(NC(=O)CSC(C)c2c(F)cccc2F)n(C(C)(C)C)n1 (stereo not drawn)
→ -10	-10
- CCOc1ccc(-n2c(C(C)N(Cc3ccco3)C(=O)c3ccc(Br)cc3)nc3ccccc3c2=O)cc1 (stereo not drawn)
→ -5	0
- CC(N)=C(C#N)C(=O)CSc1nnnn1C
→ 9	14
- CCCC(=O)OCC(O)CN(Cc1ccc(OC)c(OC)c1)Cc1ccco1 (stereo not drawn)
→ 1	7
- O=C(NCc1ccco1)N1CCCC(c2n[nH]c(=O)n2-c2ccccc2)C1 (stereo not drawn)
→ -3	-2
- CCc1c(C)nc(-n2nc(C)cc2NC(=O)c2ccc(C)c(C)c2)[nH]c1=O
→ 7	2
- O=C(Nc1ccc(-c2ccccc2)cc1)c1ccc(=O)[nH]c1
→ -5	-7
- COc1ccccc1-n1c(CNC(=O)c2ccccc2C(F)(F)F)nnc1SCC(=O)Nc1ccccc1F
→ -8	0
- Cc1ccc(C)c(CSc2ccc3nnc(-c4ccccn4)n3n2)c1
→ -2	-3
- CC#CC(=O)N1CCC(n2nccc2NC(=O)CCc2ccccc2)CC1
→ 3	3
- N#CC(C(N)=O)=C1CCCCC1
→ -1	-2
- CCCCc1nc(N2CCCN(S(=O)(=O)c3ccc([N+](=O)[O-])cc3)CC2)c2c(-c3ccccc3)noc2n1
→ 0	-2
- C=CCn1c(SCc2c(C)noc2C)nc2sc3c(c2c1=O)CCC(C)C3 (stereo not drawn)
→ 2	2
- Cn1c(Cc2ccccc2)nc2cnc(Nc3cccnc3)cc21
→ 1	1
- COc1ccc(S(=O)(=O)NCCNc2cc(-n3ccnc3C)nc(C)n2)c(C)c1C
→ -15	-19
- CCc1nc(CC)n(CCCS(C)(=O)=O)n1
→ -1	-6
- O=C(O)c1cccc(S(=O)(=O)Nc2ccc(F)c(Cl)c2)c1
→ 0	0
- COc1ccccc1NC(=O)N(C)Cc1ccc(F)cc1
→ -1	0
- O=C(NNS(=O)(=O)c1ccc(Cl)c(Cl)c1)c1csc(N2CCOCC2)n1
→ -2	-3
- N#CC(=Cc1ccco1)c1nc(-c2cc3ccccc3o2)cs1
→ 4	2
- COC[C@H](Cc1ccccc1)NC(=O)c1cccnc1Nc1cccc(C)c1C
→ -18	-27
- CCOC(=O)c1nn(-c2ccc(C)cc2)c(=O)c2c(NC(=O)c3ccccc3[N+](=O)[O-])scc12
→ 2	0
- CN(Cc1nc2ccccc2n1C)C(=O)CCN(C)S(C)(=O)=O
→ -7	-10
- O=C(c1cccs1)N(Cc1csc(COc2cc(Cl)ccc2Cl)n1)C1CC1
→ 17	12
- COc1ccc(N2C(=O)C(c3c(C(C)C)[nH]n(-c4ccc(Cl)cc4)c3=O)=C(N3CCC(C)CC3)C2=O)cc1OC
→ -5	-2
- FC(F)(F)Oc1ccc(-c2cccc(N3CCN(c4ccccn4)CC3)n2)cc1
→ -5	-9
- C=CCSc1nc2c(c(=O)[nH]1)C(c1ccc(F)cc1)C(C(=O)OC(C)C)=C(C)N2 (stereo not drawn)
→ -1	-7
- O=C(CCN1C(=O)Cc2ccccc2C1=O)Nc1ccccc1
→ 5	6
- O=C(COc1cc(Cl)cc(Cl)c1)N1CCc2sccc2C1
→ -1	5
- CCn1c(CC2CCN(CCc3ccccc3)CC2)n[nH]c1=O
→ 8	3
- CN(C)C1CCN(CC(=O)Nc2cccc(NC(=O)Cc3ccccc3)c2)C1 (stereo not drawn)
→ 9	4
- CN(C)C(=O)c1cccc(NC(=O)Cn2nnc3ccccc3c2=O)c1
→ -1	-1
- CCN1CCN(c2ccccc2NS(=O)(=O)c2ccccc2Br)CC1
→ 2	8
- COc1cccc(-c2cnnc(N3CCN(Cc4csc(C)n4)CC3)n2)c1
→ -1	-2
- COc1ccc(C)cc1C1=NN(c2ccc(C(=O)O)cc2)C(=O)CC1
→ -3	-4
- CC1CCc2c(sc3nc(C(C)C)nc(N4CCN(C(=O)Nc5c(Cl)cccc5Cl)CC4)c23)C1 (stereo not drawn)
→ -8	7
- O=C(CSc1ccccc1)N1CCC(CO)(CCc2ccccc2)CC1
→ 5&-10	-5&-13
- COc1ccccc1/C=C1\NC(=S)NC1=O
→ 12	15
- COCC(=O)N1CCC2(CC1)CN(Cc1ccc(C)cc1OC)CCN2C
→ 0	0
- CC(C(=O)N1CCCn2nc(C(=O)O)cc2C1)c1n[nH]c(=O)c2ccccc12 (stereo not drawn)
→ -1	-1
- CN(CC(=O)Nc1ccc(F)cc1)CC(=O)N(CCC#N)c1ccccc1F
→ 0	0
- COc1cc2c(cc1OC)C(c1cccc3ccccc13)N(C(=O)c1c(Cl)cccc1Cl)CC2 (stereo not drawn)
→ 23	12

Following part.
Fields – NPYLR7 agonist	NPYLR7 agonist max-min
- COc1cccc([C@H](C)n2ccnc2-c2nc[nH]c2C)c1
→ 16&19	12&11
- Cn1nc2c(c1NC(=O)c1ccc(F)cc1)CCC2
→ -1	-1
- Cc1nc(C)c(Cc2ccccc2Cl)c(N2CCN(C(=O)c3ccc(C)c([N+](=O)[O-])c3)CC2)n1
→ -4	2
- CCOc1ccc(-c2cc3c(=O)n(CC(=O)Nc4ccc(OC)c(OC)c4)ncn3n2)cc1
→ -12	-14
- COc1ccccc1N=Nc1c(C)[nH]n(-c2nc(-c3ccc(Cl)cc3)cs2)c1=O
→ 4	-5
- Cc1cc(C)c(NC(=O)CSc2nc3ccc([N+](=O)[O-])cc3s2)c(C)c1
→ 3	-11
- Cc1ccccc1N1CCN(Cc2ccc(S(C)(=O)=O)cc2)C(C)C1 (stereo not drawn)
→ 16	8
- CN(C)CCCNC1CCS(=O)(=O)C1 (stereo not drawn)
→ -2	13
- Cc1ccc(CNc2ncnc3c2cnn3-c2ccccc2)cc1
→ -1	1
- CN(Cc1ccc(F)cc1)c1ccc(OCC(=O)N2CCN(c3nc4ccccc4s3)CC2)nn1
→ 14	1
- CN(CC1CCCN(CCc2ccccc2F)C1)C(=O)Cn1cnnn1 (stereo not drawn)
→ 2	0
- N#Cc1cccnc1NCc1ccccc1Cn1cccn1
→ 0	-3
- O=C(Nc1cccs1)N1CCN(c2ccc(-c3ccco3)nn2)CC1
→ 0	1
- C=CC(=O)c1ccc2ccccc2c1
→ -9	-15
- Cc1ccc(OCC(O)Cn2nc(C)cc2C)cc1 (stereo not drawn)
→ 4	12
- CCCCNC(=O)Cn1[nH]c(=O)c2ccccc2c1=O
→ 2	-1
- Cn1c2c(c3ccccc31)C[C@H]1C[C@@H]2[C@@H](Oc2ccccn2)CN1C(=O)c1ccc2c(c1)OCCCO2
→ 9	18
- CN(C)c1ccc(C=Nc2nonc2-c2ccccc2)cc1
→ -3	-7
- CCOc1ccc(C2c3cccn3CCN2C(=O)NC(C)(C)C)cc1 (stereo not drawn)
→ 1	-1
- CCN(CC)C(=O)Oc1ccc2c(ccn2Cc2cc(C)ccc2C)c1-c1ccc(OC)c(OC)c1
→ 14	10
- CCCN(Cc1c(-c2ccccc2)nn(C)c1Oc1cccc(C)c1)CC(C)O (stereo not drawn)
→ -8	-3
